PINK1 expr mod = A Quantitative High throughput Screen to Identify Chemical Modulators of PINK1 Expression | PINK1 immunofluorescence, high-content cytometry, 24 h | Potency, µM (series often up to 76.6 µM), for the others: at the highest dose activation (PINK1 increase), most hits filed as activators | actives 0.2% (n = 410,000) | AID 624263, 2012; active = well fitted activation curve with a large enough effect; inconclusive = small, poorly fitted or top-dose-only effect; inactive = flat fitted curve, though single readings scatter; cell line not stated here;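 further: potency means the concentration at half of the fitted maximal effect; % of control where 0% means no effect; nearly all actives have a fitted effect of over 65% in size; a mitochondrial uncoupler was the plate control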
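Readout is PINK1 immunofluorescence, quantified alongside mitochondrial, cell and nuclear markers by laser-scanning microplate cytometry. Cells from a stable line were exposed to compound titrations (5 concentrations) for 24 hours, with CCCP controls.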
Menin-MLL FL inh = qHTS Assay for Inhibitors Targeting the Menin-MLL Interaction in MLL Related Leukemias: Competition With Fluorescein Labeled MLL-derived Peptide; Fluorescence polarization, fluorescein-MLL peptide displacement from menin; FP activity change, % at 61.4 µM; 290,000 tested, under 10 active; AID 1766, 2009; inconclusive = falling polarisation curve, or a change in total fluorescence; inactive = total fluorescence flat and polarisation flat or rising; no compound was filed as active; the % refers to the polarisation; negative = inhibition;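 further: % of control where 0% means no effect; inhibitors lower the polarisation; unlabelled MLL peptide was the positive control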
Sfp inh = qHTS Assay for Inhibitors of Bacillus subtilis Sfp phosphopantetheinyl transferase (PPTase); 4'-phosphopantetheinyl transferase ffp (Bacillus subtilis), Q9F4F7; Biochemical Sfp PPTase activity, qHTS; Potency, µM, inactives show max response, negative = inhibition, hits mostly inhibitors; actives 3.5% (n = 310,000); AID 1490, 2009; active means well fitted inhibition curve with a large enough effect; inconclusive means small, poorly fitted or top-dose-only effect, or another doubt; inactive means no such curve, though single readings can be large or run the other way;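 further: the enzyme is Sfp with the accession as filed and its product quenches rhodamine fluorescence; potency means the concentration at half of the fitted maximal effect; 0% = enzyme reaction without inhibitor and -100% = no enzyme wells; top concentration of the series not given in the record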
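After 15 min at room temperature with compound, 15 nM Sfp received 5 uM rhodamine-CoA plus 12.5 uM BHQ-2-ybbR (50 mM Hepes pH 7.6, 10 mM MgCl2). Rate came from the fluorescence difference over 30 min, ex 525/em 598 nm.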
D2 ag = Beta-Arrestin HTS for Positive Allosteric Modulators of the Human D2 Dopamine Receptor: Agonists; D(2) dopamine receptor (Homo sapiens), P14416; DiscoveRx PathHunter D2 beta-arrestin, luminescence, 90 min; 100% = 57 uM dopamine signal; activation, % (no concentration beside the values); actives 0.084% (n = 360,000); in the data active = activation above about 40%; inconclusive = about 15% to 40%; inactive = below about 15%; further: compound concentration not given in the record; the text of the record calls up to 30% inactive
Target sequence (P14416 whole entry, looked up): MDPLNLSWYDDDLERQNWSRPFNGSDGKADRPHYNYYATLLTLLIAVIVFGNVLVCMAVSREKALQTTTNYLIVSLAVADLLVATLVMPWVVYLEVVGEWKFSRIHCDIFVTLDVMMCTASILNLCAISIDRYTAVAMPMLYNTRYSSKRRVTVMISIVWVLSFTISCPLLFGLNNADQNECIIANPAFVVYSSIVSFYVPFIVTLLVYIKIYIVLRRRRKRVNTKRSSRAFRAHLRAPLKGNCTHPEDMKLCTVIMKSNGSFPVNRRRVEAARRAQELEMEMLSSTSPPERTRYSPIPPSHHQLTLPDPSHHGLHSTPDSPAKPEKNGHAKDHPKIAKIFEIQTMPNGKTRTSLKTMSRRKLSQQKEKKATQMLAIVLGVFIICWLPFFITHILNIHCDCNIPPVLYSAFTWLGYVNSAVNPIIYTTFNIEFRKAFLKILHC
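DiscoveRx PathHunter D2 beta-arrestin cells (2,100/well) attached overnight, then compound-stimulated 90 min at 37 C in HBSS/10 mM HEPES/0.1% Tween-20 buffer; beta-galactosidase complementation read by luminescence after 1 h at ambient temperature. Dopamine 57 uM final (EC100) as control.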
gsp ag = qHTS for Agonist of gsp, the Etiologic Mutation Responsible for Fibrous Dysplasia/McCune-Albright Syndrome: qHTS. gsp mutant cells, cAMP HTRF, 30 min; control for the full effect not named in the record. Potency, µM (titrated, usually from 76.9 µM), for the others: at the top dose activation (cAMP increase), actives largely listed as activators. actives 0.13% (n = 340,000). AID 624287, 2012; active = well fitted activation curve with a large enough effect; inconclusive = small, poorly fitted or top-dose-only effect, or another doubt; inactive = no such curve, though single readings can be large or run the other way; cell line not stated here;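 further: phosphodiesterase inhibitor Ro 20-1724 added with compounds to block cAMP breakdown; potency means the concentration at half of the fitted maximal effect; nearly all actives have a fitted effect of over 60% in size; about a fifth of the inactives were tested at one dose only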
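Cells in DMEM/10% FBS with G418 were pretreated with compounds in DMSO plus […] (300 uM stock) for 30 min at 37C. cAMP was measured by HTRF (cAMP-d2 plus anti-cAMP antibody-K) after 30 min at room temperature.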
ClpP mod = qHTS Assay for Activators of ClpP; ATP-dependent Clp protease proteolytic subunit (Bacillus subtilis (strain 168)), P80244; purified B. subtilis ClpP, FRET peptide cleavage, 20 min; Potency, µM (titrated, usually from 57.5 µM), for inactives: top-dose activity change, negative = active; actives 1.9% (n = 340,000); AID 651965, 2013; active = well fitted falling curve with a large enough effect; inconclusive = small, poorly fitted or top-dose-only effect; inactive = no such curve, though single readings can be large or run the other way; further: potency means the concentration at half of the fitted maximal effect; the source files actives as falling curves though it sought activators and does not explain the sign; nearly all actives have a fitted effect of over 65% in size; many hits overshoot -100%
Target sequence (P80244 whole entry, looked up): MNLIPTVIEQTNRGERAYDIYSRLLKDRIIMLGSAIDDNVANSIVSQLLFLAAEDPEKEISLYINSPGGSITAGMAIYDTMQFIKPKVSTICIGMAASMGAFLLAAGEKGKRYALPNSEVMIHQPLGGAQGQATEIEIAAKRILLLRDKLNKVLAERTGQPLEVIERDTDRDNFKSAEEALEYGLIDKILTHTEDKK
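Purified B. subtilis ClpP, 10 microg/mL final in Tris/HCl pH8 with KCl, BSA, glycerol and Tween-20, cleaved an Abz/nitrotyrosine-quenched decapeptide. Fluorescence (ex 320, em 430) was read at 0 and 20 min at room temperature. Delta was normalized to 5.8 microM ADEP and DMSO/no-enzyme controls.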
gsp antagonist = qHTS for Antagonists of gsp, the Etiologic Mutation Responsible for Fibrous Dysplasia/McCune-Albright Syndrome: qHTS | gsp-mutant cells, cAMP HTRF, 30 min; control for the full effect not named in the record | Potency, µM (series often up to 76.9 µM), for the others: top-dose activity change, negative = inhibition, hits mostly inhibitors | actives 0.4% (n = 340,000); active = falling curve of any shape with a large fitted effect; inconclusive = falling curve, mostly with a smaller effect; inactive = flat or rising curve; cell line not stated here;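 further: intracellular cAMP measured with PDE inhibitor Ro 20-1724 present during compound exposure; potency means the concentration at half of the fitted maximal effect; on the % scale 0 is the no-effect control and ±100 the full control effect; nearly all actives have a fitted effect of over 65% in size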
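Cells in G418 medium, seeded 16-24 h, 37C; buffer exchange to DPBS + 1 mM CaCl2, 0.5 mM MgCl2, 0.05% BSA; cpds in DMSO + […] (300 uM stock), 30 min 37C; HTRF cAMP detection.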
* marks the source's active call; other numbers are inactive results; ? = inconclusive; / = no result given; [ ] = dose if it differs, or a comment.

SMILES | PINK1 expr mod | Menin-MLL FL inh | Sfp inh | D2 ag | gsp ag | ClpP mod | gsp antagonist
Cc1nn(-c2ccc(N3CCOCC3)nn2)c(C)c1CCC(=O)Nc1ccc(F)cc1 | 0.6% | 0.6 | 7% | -1.9 | 19% | 2.0% | 7%
O=C(COC(=O)c1cnccn1)Nc1c(Cl)cc(Cl)cc1Cl | 0.8% | / | / | -1.4 | 14% | -1.8% | ?
O=C(CS(=O)(=O)Cc1ccccc1)NCc1ccc2c(c1)OCO2 | 0.3% | 5.6 | 4% | -1.8 | -12% | -0.2% | 14%
O=C(Cn1ccc(C(F)(F)F)n1)NNC(=O)c1ccco1 | -0.2% | / | / | -7.0 | -6% | 0.3% | 16%
Cc1ccc(C2(c3noc(CN(C)CC4CCCCO4)n3)CCCC2)cc1 (configuration not stated) | 7.7% | -3.4 | 2% | -3.0 | 0% | 0.2% | 0%
O=C(O)c1ccccc1C(=O)N1CCN(c2cccc(Cl)c2)CC1 | -0.7% | 2.9 | -13% | -1.3 | 8% | 0.6% | 13%
O=C(Nc1ccccc1)O/N=C/c1ccc(F)cc1 | -0.3% | -0.1 | 1% | -1.9 | ? | -1.4% | 3%
COc1ccc(-c2ccc(-c3noc(C4CCCCC4)n3)c(OC)n2)cc1 | 6.2% | 5.4 | 8% | -1.9 | ? | ? | -1%
COc1ccc(S(=O)(=O)N2CCCCC2c2cc(C(=O)N3CCOCC3)no2)cc1 (configuration not stated) | 0.6% | / | / | -3.9 | / | 1.2% | /
O=S(=O)(Nc1ccc(-c2csc(-c3ccccc3)n2)cc1)c1ccccc1 | -1.5% | 7.1 | 7% | -1.4 | 4%[15.4 µM] | / | -9%
CN1C(=O)N(c2ccc(Cl)cc2)C(C)(O)CC1(C)C (configuration not stated) | -0.3% | 10.0 | 8% | 0.6 | 17% | -1.2% | -2%
O=C(Nc1ccc2c(c1)OCO2)C1CCCN1C(=O)Nc1cccc(F)c1 (configuration not stated) | 1.6% | 3.5 | -11% | -0.9 | 5%[15.4 µM] | -1.8% | -2%
Cc1ccccc1OCCNC(=S)Nc1ccccc1 | 1.1% | 4.5 | 9% | 1.1 | 0% | -3.3% | 1%
CCCSC1=NN2CCCC(=O)N=C2S1 | 0.9% | -2.5 | -2% | -4.4 | -14%[15.4 µM] | / | 11%
COCCCNC(=O)c1ccc2nc3ccccc3c(=O)n2c1 | -2.7%[38.3 µM] | -3.0 | 15% | 0.9 | 21% | 16µM* | 11%
CC(=O)Oc1cccc(C(=O)Nc2ccccc2NC(=O)c2cccc(OC(C)=O)c2)c1 | 0.9% | -1.0 | 12% | 3.1 | -3% | -2.1% | -22%
O=S(=O)(CCc1ccncc1)Cc1ccc2c3c(cccc13)CC2 | -0.3% | 5.1 | 6% | 5.1 | 2% | -23% | -2%
COc1ccc(C2C(C#N)=C(N)Oc3n[nH]c(C)c32)cc1Cn1cc([N+](=O)[O-])cn1 (configuration not stated) | -2.3% | 5.4 | 8% | -0.6 | -17% | -1.3% | -1%
C=CCOc1ccc(/C(CC)=N/O)cc1OC | -0.7% | 1.9 | 6% | -4.5 | 22% | 1.0% | 5%
COCC(=O)NNC(=O)Cc1ccc(Cl)cc1 | -0.3% | -2.5 | 18% | -1.0 | -2% | 1.3% | -11%
CCOC(=O)N/N=C(\C)c1ccc(C)o1 | 1.7% | -2.8 | 21% | -3.4 | 2%[15.4 µM] | / | 1%
O=C(Nc1ccccc1)N1CCCC2(CCN(C(=O)c3csnn3)CC2)C1 | 0.1% | -2.3 | 3% | / | / | / | /
CSCC[C@H](NC(=O)N1CCn2c1nc1ccccc12)C(=O)NCc1ccc2c(c1)OCO2 | 0.7% | / | -5% | -0.2 | 18% | 0.0% | -9%
CC(C)Cc1cc(C(=O)O)c2ccccc2n1 | -4.7%[38.3 µM] | / | / | -2.9 | -50%[inhibitor] | 0.3% | -2%
Cc1c(N(C)C(=O)COc2ccc3ccccc3c2)c(=O)n(-c2ccccc2)n1C | 1.4% | -1.9 | 16% | -5.7 | -1%[15.4 µM] | -17% | -16%
CCCn1c(SCC(=O)N2c3ccccc3CC2C)n[nH]c1=O (configuration not stated) | -0.8% | / | / | 5.1 | -14%[15.4 µM] | 1.8% | 6%
COCC(C)NC(=O)C(C)Oc1ccccc1 (configuration not stated) | 3.1% | -0.5 | 9% | -2.9 | 19% | -3.4% | 41%[activator]
O=C(NCc1ccco1)NC12CC3CC(CC(C3)C1)C2 | -0.8% | 4.4 | 8% | -2.4 | 0% | -1.5% | -16%
Cc1cccc(N(C(=O)CNC(=O)c2ccco2)C(C(=O)NC2CCCCC2)c2cccnc2)c1 (configuration not stated) | 0.1% | -5.2 | 19% | -1.3 | 8%[15.4 µM] | -2.0% | 0%
Cc1ccc(NC(=O)c2ccc(S(=O)(=O)N3CCOCC3)cc2)nc1 | 7.5%[38.3 µM] | -1.8 | 1% | -4.3 | -2% | -2.7% | 5%
COc1cccc(NC(=O)CN(C)C(=O)c2cccc(NS(=O)(=O)c3ccccc3)c2)c1 | -0.1% | / | / | 0.4 | ? | 0.9% | 0%
COc1cc(OC)cc(-c2c(-c3cccs3)c3cc(-c4ccc(N(C)C)nc4)ccc3n2C)c1 | 11% | / | / | -3.7 | / | 4.9% | ?
Cc1ccc([C@H]2C(C(=O)O)=CC[C@@H](c3cccs3)N2S(=O)(=O)c2ccc(C)cc2)cc1 | -0.9% | / | / | -1.8 | / | -3.9% | -11%
CC(Sc1nc(-c2ccccc2)c(-c2ccccc2)[nH]1)C(=O)NCC1CCCO1 (configuration not stated) | 0.2% | / | / | -0.8 | ? | 28µM* | /
CCN(CC)CCn1c2c(c(SCC(=O)Nc3nc4ccccc4s3)nc1=O)CCCC2 | -1.5% | / | / | -7.0 | -8%[15.4 µM] | 1.1% | -6%
CN(C)C(=S)NC(=S)Nc1ccc2ccccc2c1 | -0.9% | / | / | -4.3 | -4% | ? | ?
Cc1cc(=O)oc2cc(OCc3ccc(C(=O)N4CCN(c5ccc([N+](=O)[O-])cc5)CC4)cc3)ccc12 | 1.1% | -1.2 | 3% | -2.3 | 15% | -22% | -5%
COc1ccc(NC(=O)C2CCCN2C(=O)OCc2ccccc2)c(OC)c1 (configuration not stated) | -0.3% | 1.3 | 12% | -4.1 | -39% | -0.6% | 7%
CC1CCN(CC(O)COc2cccc(F)c2)CC1 (configuration not stated) | 3.9% | 0.1 | -1% | -2.1 | 9% | 1.0% | 13%
O=C(Cc1ccccc1)NNc1c2ccccc2nc2ccccc12 | 4.6% | -6.8 | 2% | -0.4 | 19% | / | -17%
O=C(Nc1ccc2c(c1)C(=O)NC2=O)c1ccc2ncsc2c1 | ? | -1.7 | 13% | 1.6 | ? | / | 12%
Cc1cc(N)n(Cc2ccc(Cl)cc2)n1 | 0.7% | -0.5 | 9% | -4.3 | -75%[inhibitor] | -1.0% | 4%
CN(C)CCCNc1ncc(C(F)(F)F)cc1Cl | -1.8% | 4.7 | 19% | 3.7 | 23%[15.4 µM] | / | 11%
CC(C)N1CCC(n2nccc2NC(=O)c2ccc3c(c2)OCO3)CC1 | -1.4% | -2.6 | -1% | -3.3 | -25% | -0.5% | 2%
Cc1[nH]c(=O)c(C#N)c(C)c1Cl | -0.3% | -0.4 | 25% | -3.5 | -9% | 4.5% | 8%
C[C@@H]1CN([C@H](C)CO)C(=O)c2cc(NC(=O)Nc3ccc(F)cc3)ccc2O[C@@H](C)CCCCO[C@H]1CN(C)S(=O)(=O)c1cccs1 | -0.8% | / | / | 2.4 | 7% | -3.3% | /
C=CCNC(=O)CN1CCC(n2c(C)nc3cc(C(F)(F)F)ccc32)CC1 | -1.3% | -0.7 | -7% | 1.5 | 4% | -1.8% | -6%
CCC(CC)NC(=O)c1cc(OC)c(OC)cc1[N+](=O)[O-] | -1.8% | 4.5 | 22% | -3.5 | 26% | -1.0% | 1%
COc1cccc(C2NC(=O)NC(C)=C2C(=O)Nc2ccc(C)cc2)c1 (configuration not stated) | 0.5% | -1.1 | -15% | -2.7 | -1% | 1.2% | 10%
O=C(O)CCCNC(=O)CCCn1nnc2ccccc2c1=O | -0.9% | -1.8 | 18% | -2.1 | 11%[15.4 µM] | / | 16%
CCN(Cc1ccccc1)S(=O)(=O)c1cc(C(=O)O)ccc1OC | 0.9% | -0.1 | -7% | 0.0 | 3%[15.4 µM] | / | /
CC(=O)N(C)c1ccc(N=Nc2ccc3ncccc3c2)cc1 | 2.4% | / | / | 0.5 | -27% | / | -22%
Nc1cccc2nsnc12 | -2.2% | 3.1 | -22% | 2.2 | 3%[15.4 µM] | / | 6%
O=C(NCC1CCCO1)C(=Cc1cccc([N+](=O)[O-])c1)C(=O)NCC1CCCO1 (configuration not stated) | 11% | 0.5 | -8% | 3.2 | -17%[15.4 µM] | / | -4%
C/C=C1\COC(C(=O)NCCCN2CCCC2=O)(C(F)(F)F)C=C1C=C(C)C (configuration not stated) | 0.0% | -1.1 | 9% | -3.0 | / | -0.1% | 3%
CCOCCCNC(=O)C(c1ccc(Cl)cc1)N1CCC2(CC1)OCCO2 (configuration not stated) | -0.6% | 1.0 | 9% | -0.3 | 5% | -3.0% | 7%
CCOC(=O)C1=C(COC(=O)/C=C/c2ccc(OC)cc2)NC(=O)NC1C (configuration not stated) | 8.5% | / | / | 0.3 | -1% | -6.7% | 16%
CCCC1C(C(=O)OCC)=C(C)NC(C)=C1C(=O)OCC | 6.9% | 0.8 | -3% | -3.0 | -57%[inhibitor] | 20µM* | -4%
Cc1c(C(=O)OCC(=O)NCCN2C(=O)CSC2=O)cccc1[N+](=O)[O-] | 0.9% | / | / | 0.1 | 19% | 0.3% | 12%
